Source: PubChem BioAssay (several laboratories)
YopH inh: YopH (Yersinia) phosphatase inhibition | fluorescence Ex485/Em525 | 140,000 tested, 0.16% active | AID 898 | inhibition, %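 (about 10 µM by stock and volumes)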;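 active = inhibition of 50% or more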;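 also: controls were vehicle for no effect and minimum signal wells for full effect; inactives centre near -20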
Arbovirus inh: antivirals against arbovirus infection; arbovirus infection cell-based antiviral screen; inhibition, % at 10 µM; 200,000 tested, 0.37% active;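 active = inhibition from about 30%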;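 also: bluetongue infection of BSR cells; cell survival read as ATP light after 72 h; 0% = infected wells without compound and 100% = uninfected wells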
Mtb growth: M. tuberculosis H37Rv growth inhibitors, H37Rv strain (AID 1626); inhibition, % at 10 µM; hits with a dose series show IC50 in µM; 220,000 tested, 0.95% active; M. tuberculosis H37Rv growth inhibition; higher % means a stronger effect;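 active = confirmed in a dose series; inconclusive = inhibition above 80% but not taken into the dose series; inactive = below 80% or under 30% at every dose of the series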;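 also: bacteria incubated seven days before Alamar blue readout; 0% = bacteria only wells and 100% = bacteria with antibiotic wells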
Mtb betalactam: beta-lactam sensitization of Mtb H37Rv. 330,000 tested, 0.27% active. M. tuberculosis H37Rv growth with meropenem, percent inhibition; hits of this screen are not shown here. AID 434955. inhibition, % at 25 µM;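 active = about 74% or more and at least 40 points above the plate without the antibiotic, then above 30% in a dose series; inconclusive = first-round hits that could not be retested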;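 also: growth measured after seven days incubation then overnight dye step; 0% = bacteria only wells and 100% = bacteria with antibiotic; twin plates without the antibiotic show which effects depend on it; some results filed as inactive read as strong as hits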
RecA splice inh: Mtb RecA intein splicing inhibition; P9WHJ3; cell-free RecA intein splicing, fluorescence; inhibition, %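 (about 9 µM by stock and volumes)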; 290,000 tested, 0.75% active; AID 2221; in the data active = inhibition above about 30%; inconclusive = no clear call, values can overlap the other calls;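 also: 0% = vehicle wells and 100% = reference inhibitor control wells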
Target sequence (P9WHJ3 whole entry, looked up, canonical isoform): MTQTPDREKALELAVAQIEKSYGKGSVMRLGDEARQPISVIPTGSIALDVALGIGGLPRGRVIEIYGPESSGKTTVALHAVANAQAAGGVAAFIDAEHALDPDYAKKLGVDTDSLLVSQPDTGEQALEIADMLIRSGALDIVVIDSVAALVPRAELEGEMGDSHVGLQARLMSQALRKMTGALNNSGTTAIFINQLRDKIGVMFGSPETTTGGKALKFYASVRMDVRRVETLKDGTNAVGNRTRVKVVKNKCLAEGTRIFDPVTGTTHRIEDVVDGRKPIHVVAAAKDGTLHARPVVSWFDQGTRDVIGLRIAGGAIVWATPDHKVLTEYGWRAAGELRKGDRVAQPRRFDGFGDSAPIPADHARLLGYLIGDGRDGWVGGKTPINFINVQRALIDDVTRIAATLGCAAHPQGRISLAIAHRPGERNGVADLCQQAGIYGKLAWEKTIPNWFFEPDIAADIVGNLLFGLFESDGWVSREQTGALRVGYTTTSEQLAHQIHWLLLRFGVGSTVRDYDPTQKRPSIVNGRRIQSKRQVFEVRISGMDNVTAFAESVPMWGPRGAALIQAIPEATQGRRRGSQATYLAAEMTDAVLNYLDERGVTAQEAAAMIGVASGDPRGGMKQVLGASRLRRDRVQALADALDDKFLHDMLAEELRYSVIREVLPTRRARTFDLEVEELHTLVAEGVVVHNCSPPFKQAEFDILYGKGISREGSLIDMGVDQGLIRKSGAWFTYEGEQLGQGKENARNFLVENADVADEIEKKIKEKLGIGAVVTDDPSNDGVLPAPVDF
Arbovirus inh repeat: further read-out of Arbovirus inh, marked with its call; inhibition, %; measured here: 10K subset replicate screen; many hits read low in the repeat;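 first of two repeat runs on a subset; 0% = infected and 100% = uninfected wells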
* hit, by the source's call; ? = inconclusive; . = not tested or not shown. The list is partial. The share of hits here may be higher or lower than overall.

SMILES	YopH inh	Arbovirus inh	Mtb growth	Mtb betalactam	RecA splice inh	others
CCOC(=O)Cn1c(=O)c(-c2ccccc2NCc2ccccc2)nc2ccccc21	-17	.	0%	1	-1.9
CCc1c(C)nc(N)n2c(SCC(=O)N3CCCC(C)C3)nnc12 (configuration not stated)	-34	6	-3%	-5	8.3
Cc1sc2ncn(CC(=O)N3CCC4(CC3)OCCO4)c(=O)c2c1C	-6	8	1%	-11	0.3
Cc1ccc(NC(=O)COC(=O)CSC(=S)N2CCOCC2)cc1C	.	-4	7%	-2	0.5
CCN1C(=O)c2ccccc2Sc2ccc(C(=O)NCCN3CCOCC3)cc21	-6	10	.	3	-1.0	Arbovirus inh repeat=3
COC(=O)c1ccn(Cc2ccccc2Cl)n1	.	2	1%	.	-1.2
COC(=O)c1[nH]c2ccc(C)cc2c1NC(=O)C1=COCCO1	-22	-8	11%	-2	1.6
C=C(C)CNC(=O)c1ccc(OC2CCN(S(=O)(=O)N(C)C)CC2)cc1	.	10	-6%	-3	-1.1
O=C(Nc1cccs1)Nc1c(F)cc(F)cc1Br	-26	-1	3%	-6	-0.9
Cn1cccc1/C=C1\SC(=Nc2ccccc2)NC1=O	.	.	5%	1	1.0
CCN(CC)C(=O)c1ccc(-c2nnc(Nc3ccc(C(=O)NC)cc3)c3ccccc23)cc1	.	.	.	-7	-0.2
CC(C)CC(N)c1cn([C@@H](CCC(=O)O)C(=O)N2CCNCC2)nn1 (some centres not stated)	.	5	-4%	-12	-1.2
CN1C(=O)c2oc3ccccc3c(=O)c2C1c1ccncc1 (configuration not stated)	.	.	-7%	-1	9.0
O=C(c1cc(S(=O)(=O)N2CCCCC2)ccc1N1CCOCC1)N1CCN(Cc2ccccc2)CC1	.	2	12%	-11	0.6
COc1cccc(C(c2ccccc2)N2C3CCC2CN(S(=O)(=O)c2ccc(F)cc2)CC3)c1 (configuration not stated)	.	.	.	-6	10
CC1CC(C)CN(CC(C)(C)NS(=O)(=O)c2ccccc2)C1 (configuration not stated)	-27	2	-2%	2	1.4
CCOc1ccc(C(=O)NC(=S)Nc2ccc(NC(=O)CC)cc2)cc1[N+](=O)[O-]	-27	-5	7%	7	0.7
CC(C)(C)NC(=O)C(c1ccc(F)cc1)N(CC1CCCO1)C(=O)CCC(=O)Nc1ccccn1 (configuration not stated)	.	.	.	-1	-1.6
CCOc1ccc(CN(C)C(=O)c2cccnc2OCC)cc1OC	.	5	2%	-11	-1.3
COc1ccccc1Nc1nc(-c2c(C)nc3ncccn23)cs1	.	-15	-5%	.	1.1
Cc1ccc2c(c1)N(C(=O)CCC(=O)NC1CCN(Cc3ccccc3)CC1)CC(C)O2 (configuration not stated)	.	.	.	8	-1.9
Cc1nc(SCc2ccccc2F)c2cnn(-c3ccccc3)c2n1	.	-2	-8%	-1	0.6
N#CC(=C1CCCC1)c1nc(-c2ccccc2)cs1	-148	8	0%	-5	0.0
Cn1c(=O)c2c(ncn2CC(=O)N/N=C/C=C/c2ccco2)n(C)c1=O	.	.	-5%	-7	0.7
Cc1ccc(-n2ncc(C(=O)N3CCc4ccccc4C3)c2NC(=O)c2ccco2)cc1C	-8	-4	-2%	-1	-1.0
O=C1C2CCCN2C(c2ccccc2)N1c1cccc(Cl)c1 (configuration not stated)	-7	0	-6%	-5	-2.2
COC(=O)c1ccc(COc2ccc3ccc(=O)oc3c2)o1	.	.	.	9	-0.3
CCOc1ccc(N2CC(C(=O)NCCN3C(=O)S/C(=C\c4ccc(OC)cc4)C3=O)CC2=O)cc1 (configuration not stated)	-19	-3	-2%	3	0.3
COc1ccc(OCC(=O)Nc2ccc(N3CCN(C(=O)c4ccccc4C)CC3)cc2)cc1	.	-23	8%	-5	6.2
CCOC(=O)c1ccc(NC(=S)NC2CC(C)(C)NC(C)(C)C2)cc1	-36	-3	-2%	-9	-2.2
COc1ccc(Cl)cc1C(=O)O/N=C(\N)c1ccc(Cl)cc1	-21	-12	-7%	13	-0.6
O=C(CN1CCN(CCOCCO)CC1)N1c2ccccc2Sc2ccc(Cl)cc21	8	-5	-6%	-4	-0.9
CCCCN(CC)CCCNC(=O)Cn1nc(Cc2cccnc2)c2ccccc2c1=O	-23	5	4%	2	0.8
CCc1c(C)nc(SCC(=O)N2CCN(c3ccccc3OC)CC2)[nH]c1=O	.	2	-7%	1	-1.6
CCc1cccc(C)c1N(C(=O)Cn1c(=O)[nH]c2ccccc21)C(C)COC (configuration not stated)	-25	6	3%	2	0.4
O=C(CN1CCN(c2ccc(Cl)cc2)CC1)Nc1ccc(F)cc1	-33	10	0%	2	7.3
Cc1[nH]c(C)c(S(=O)(=O)Nc2cccc(Cl)c2C)c1C(=O)N1CCCC1	.	.	.	2	1.0
O=C(NCc1ccco1)c1csc2c1CCCCC2	-33	1	20%	4	-2.5
COC(=O)c1ccsc1NC(=O)CN1CCN(c2ncccn2)CC1	.	.	.	2	1.5
CCCN1CCc2c(sc(NC(=O)CCS(=O)(=O)c3ccccc3)c2C(=O)OC)C1	.	.	.	?	-3.4
O=C(O/N=C1\CCCCC1c1ccc([N+](=O)[O-])cc1[N+](=O)[O-])c1c(F)cccc1F (configuration not stated)	-35	-5	-8%	8	12
COc1ccccc1Nc1nc(NCc2ccco2)c2ccccc2n1	.	.	84%	73	22
CC1=NN(c2ccc(C(=O)O)cc2)C(=O)/C1=C/c1ccc(-c2ccccc2F)o1	.	.	.	88	8.5
Cc1ccc(C(=O)/C=C/c2ccc(Br)cc2)o1	-29	-2	-7%	69	4.4
CC(=O)c1ccc(NC(=O)CSc2nccn2C)cc1	.	.	-14%	-8	-3.1
CC1CC(C)CN(CCCNC(=O)C2CCN(S(=O)(=O)N3CCCCC3)CC2)C1 (configuration not stated)	-13	4	-10%	2	.
CCOc1ccc(S(=O)(=O)N2CCN(C(=O)c3cc(-c4ccccc4)nn3-c3ccccc3)CC2)cc1	.	.	.	-8	1.6
Cc1ccc(CSCCNC(=O)c2ccccc2)cc1	-30	0	8%	-3	3.9
O=C(CN1CCN(S(=O)(=O)c2ccc(Cl)cc2)CC1)c1ccc(O)c(O)c1	.	.	.	6	-0.4
O=C(COC(=O)CCc1ccc(S(=O)(=O)N2CCOCC2)cc1)NCc1ccccc1	.	-2	-5%	-2	1.2
(next part)
SMILES	YopH inh	Arbovirus inh	Mtb growth	Mtb betalactam	RecA splice inh	others
O=C(Nc1ccc(S(=O)(=O)N2CCOCC2)cc1)c1ccc(Cl)cc1	.	1	2%	4	-0.2	Arbovirus inh repeat=4
Cc1ccc2c(CC(=O)OC3CCOC3=O)coc2c1 (configuration not stated)	7	4	0%	-10	2.4
C=CCn1c(SCC(=O)N2N=C(c3ccco3)CC2c2ccco2)nnc1-c1ccncc1 (configuration not stated)	-2	-3	2%	0	-3.5
Cc1ccccc1NC(=S)NC(NC(=O)c1ccccc1C)C(Cl)(Cl)Cl (configuration not stated)	-39	-6	-4%	-1	.
CC(C)C12CCC(C(=O)O)C(C1)C(=O)O2 (configuration not stated)	-15	14	-5%	-19	-0.7
COc1cccc(-c2c(NC(=O)c3ccco3)oc3ccccc3c2=O)c1	.	.	.	-2	-2.5
Cc1cc(NC(=O)CCC(=O)N(CC(=O)NCC2CCCO2)c2cccc(F)c2)no1 (configuration not stated)	.	.	.	1	-0.4
CC1CCCC(NC(=O)c2ccc(CNc3c(N4CCCC4)c(=O)c3=O)cc2)C1C (configuration not stated)	-27	2	6%	1	-1.0	Arbovirus inh repeat=-2
CC(=O)N1c2ccc(S(=O)(=O)N3CCC(C(=O)NC(C)c4ccccc4)CC3)cc2CC1C (configuration not stated)	.	.	.	-5	0.1
CCN1CCC(NC(=O)Nc2ccc(F)cc2F)CC1	.	5	-1%	-2	-1.3
Nc1ccnn1Cc1ccncc1	.	-5	-2%	2	1.1
CCCCCN(C(=O)CCC(=O)OCC(=O)NCc1cccc(OC)c1)c1c(N)n(CCCC)c(=O)[nH]c1=O	.	.	.	2	-0.8
Cc1cc(S(=O)(=O)N2c3ccc(F)cc3CCC2C)ccc1-n1cnnn1 (configuration not stated)	.	.	.	-8	0.1
Cc1ccc(C2=[N+]([O-])C(C)N(O)C2(C)C)o1 (configuration not stated)	1	-2	1%	17	2.8
COc1ccc(NC(=O)c2cc3c(CO)cnc(C)c3oc2=Nc2cccc(F)c2)c(OC)c1	.	.	.	4	1.2
CCCCNC(=O)N(O)C1N(/N=C/c2cccnc2)C(=S)SC1(C)C (configuration not stated)	.	.	2%	3	-1.6
C=CCn1c(SCC(=O)NC23CC4CC(CC(C4)C2)C3)nc(O)cc1=O	-35	-1	-2%	5	-1.0
CC(Sc1nnc(N)s1)C(=O)Nc1ccc(N2CCOCC2)cc1 (configuration not stated)	-12	1	1%	-5	1.7
O=C(C[N+]1(CC#Cc2ccccc2)CCCCC1)c1ccc(Cl)cc1	.	-3	8%	3	5.8
CC1(C)CC(N=Cc2c(O)n(Cc3ccc4c(c3)OCO4)c(=O)c3ccccc23)CC(C)(C)N1	.	-26	15%	-2	-13
COC(=O)c1ccccc1NC(=O)Cn1cnc2cc(C)c(C)cc21	-35	10	-6%	-2	-2.8
CN(C(=O)CSc1n[nH]c(-c2cccs2)n1)C1CCS(=O)(=O)C1 (configuration not stated)	.	.	.	-6	2.3
O=C(CCn1nnc2ccccc2c1=O)N[C@@H](Cc1c[nH]c2ccccc12)C(=O)O	.	.	-6%	-5	2.2
COc1ccc(C2OC(=O)CC2C(=O)NC2CCCCCC2)cc1OC (configuration not stated)	-34	6	-3%	-2	0.6
Cc1cccc(C)c1NC(=O)CNC(=O)CCCc1c[nH]c2ccccc12	.	.	.	6	-1.5
CCCC1Cc2c(sc3nc(SC)nc(N)c23)CO1 (configuration not stated)	-42	-6	-15%	-7	.
COc1cc(C(=O)NCc2ccco2)cc(OC)c1OC	-29	-4	0%	4	0.6
Cc1ccsc1C(=O)C1CCCN(CCO)C1 (configuration not stated)	.	3	4%	-2	-1.1
COc1ccc(N2CCN(S(=O)(=O)c3cnc[nH]3)CC2)cc1	.	.	-3%	-4	-2.1
COC(=O)CN1C2=NCCCN2c2ccccc21	.	6	-8%	-5	0.0
CCN(CC)C1CCN(C(=O)c2ccc(OC3CCN(Cc4ccccn4)CC3)cc2)C1 (configuration not stated)	.	.	.	0	1.9
Cc1cc(C)cc(NC(=O)CSc2nc3[nH]ncc3c(=O)[nH]2)c1	-11	-1	3%	0	1.1
CC(C1CC1)N(Cc1ccccc1)C(=O)NC(=O)c1ccccc1 (configuration not stated)	.	6	2%	-4	0.6
O=C(Nc1nc(-c2cccs2)c(-c2cccs2)s1)C1CCCC1	-25	-13	?	.	-3.2
CCCOc1ccc(C(=O)NNC(=S)NC(C)=O)cc1	8	-24	?	99	9.9
CC(C)NC(=O)c1ccccc1N(Cc1ccccc1)S(C)(=O)=O	13	-1	1%	12	3.0
COCCCNC(=O)c1cn(CCOC)c(=O)c2c1c1ccccc1n2C	.	.	.	-5	-1.8
Cc1ccc(N=Nc2c(C)[nH]n(C(N)=S)c2=O)cc1	.	16	-4%	92	11
Cc1cc(C)c(O)c(-c2cc(C(=O)NCCc3ccc(S(N)(=O)=O)cc3)[nH]n2)c1	.	.	10%	-6	.
COC(=O)c1sccc1NC(=S)Nc1cccc(F)c1	.	.	-8%	-4	0.1
